Bioassay records: PubChem BioAssay, National Center for Advancing Translational Sciences (NCATS)
CtBP-E1A blk: blocks the CtBP interaction with E1A; actives 0.49% (n = 340,000); AlphaScreen GST-E1A/His-CtBP binding, 1536-well; hits give low values; control for the full effect not named in the record; activity change, % (concentration not given with the values); in the data active means activity change below about -65%; inconclusive means about -30% to -65%; inactive means above about -30%; further: on the % scale 0 is the no-effect control and ±100 the full control effect
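AlphaScreen with 125 nM GST-E1A and 125 nM His-CtBP (5X stocks) in Tris pH 8.0, 300 mM NaCl, BSA, Tween 20, TCEP. Compounds preincubated 2 h at 37 deg C, then glutathione donor/nickel acceptor beads added for 1 h at 37 deg C in dark.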
TRPML1 ag: agonists of human TRPML1 channel. Q9GZU1. TRPML1-expressing cells, Ca2+ dye fluorescence, FDSS; host cell line not named in the record; reference of the full effect not given here. activation, % (no concentration beside the values). actives 0.12% (n = 410,000). AID 624414; in the data active = activation above about 50%; inconclusive = about 30% to 50%; inactive = below about 30%; further: 0% is about no effect; the text of the record puts the active cut at 80%
Target sequence (Q9GZU1 whole entry, looked up): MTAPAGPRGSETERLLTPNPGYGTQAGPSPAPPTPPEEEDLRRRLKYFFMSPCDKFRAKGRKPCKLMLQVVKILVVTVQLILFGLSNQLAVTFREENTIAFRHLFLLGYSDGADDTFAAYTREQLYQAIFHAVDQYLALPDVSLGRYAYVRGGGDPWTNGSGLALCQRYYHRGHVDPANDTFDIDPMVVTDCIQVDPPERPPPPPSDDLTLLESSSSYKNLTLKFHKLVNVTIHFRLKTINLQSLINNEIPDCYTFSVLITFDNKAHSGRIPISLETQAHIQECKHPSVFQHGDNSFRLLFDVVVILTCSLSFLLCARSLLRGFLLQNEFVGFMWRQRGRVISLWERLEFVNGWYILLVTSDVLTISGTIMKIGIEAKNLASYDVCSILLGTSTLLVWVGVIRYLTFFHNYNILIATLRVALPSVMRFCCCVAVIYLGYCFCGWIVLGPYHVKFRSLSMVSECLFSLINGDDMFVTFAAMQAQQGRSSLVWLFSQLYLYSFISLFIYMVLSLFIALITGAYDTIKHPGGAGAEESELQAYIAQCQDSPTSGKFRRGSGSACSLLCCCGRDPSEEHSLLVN
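Kinetic FDSS Ca2+ read in Tet-induced TRPML1-DL cells (ABD Ca8 dye plus quencher, 45-90 min RT loading): baseline, then compound, then 110 s agonist window; EC80 agonist 54-4 at 4uM final added afterwards for a 110 s antagonist window.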
Six1-Eya2 blk: blocks human Six1 binding to Eya2; AID 651725; activity change, % (no concentration beside the values); Q15475+O00167; actives 0.56% (n = 360,000); AlphaScreen GST-Six1/His-Eya2 binding, biochemical; hits give low values; control for the full effect not named in the record; in the data active = activity change below about -65%; inconclusive = about -30% to -65%; inactive = above about -30%; further: on the % scale 0 is the no-effect control and ±100 the full control effect; compound concentration not given in the record
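Compounds are tested against tagged Six1 and Eya2 proteins bridged by glutathione donor and nickel acceptor beads; after a one-hour incubation at 37 °C without light, AlphaScreen emission is recorded.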
PINK1 modulator: changes PINK1 expression; Potency, µM (titrated, usually from 76.6 µM), inactives show at the highest dose activation (PINK1 increase), hits mostly activators; actives 0.2% (n = 410,000); PINK1 immunofluorescence, high-content cytometry, 24 h; active = well fitted activation curve with a large enough effect; inconclusive = small, poorly fitted or top-dose-only effect; inactive = flat fitted curve, though single readings scatter; cell line not stated here;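 further: potency means the concentration at half of the fitted maximal effect; % of control where 0% means no effect; nearly all actives have a fitted effect of over 65% in size; a mitochondrial uncoupler was the plate control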
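PINK1 protein level read as immunofluorescence by microplate cytometer in a fixed, stained stable cell line after 24 h exposure to five compound concentrations, with CCCP as control.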
D2 agonist: human D2 receptor agonism in beta-arrestin assay | activation, % (test concentration not listed) | P14416 | actives 0.084% (n = 360,000) | AID 624465 | DiscoveRx PathHunter D2 beta-arrestin, luminescence, 90 min; 100% = 57 uM dopamine signal; in the data active = activation above about 40%; inconclusive = about 15% to 40%; inactive = below about 15%; further: compound concentration not given in the record; the text of the record calls up to 30% inactive
Target sequence (P14416 whole entry, looked up): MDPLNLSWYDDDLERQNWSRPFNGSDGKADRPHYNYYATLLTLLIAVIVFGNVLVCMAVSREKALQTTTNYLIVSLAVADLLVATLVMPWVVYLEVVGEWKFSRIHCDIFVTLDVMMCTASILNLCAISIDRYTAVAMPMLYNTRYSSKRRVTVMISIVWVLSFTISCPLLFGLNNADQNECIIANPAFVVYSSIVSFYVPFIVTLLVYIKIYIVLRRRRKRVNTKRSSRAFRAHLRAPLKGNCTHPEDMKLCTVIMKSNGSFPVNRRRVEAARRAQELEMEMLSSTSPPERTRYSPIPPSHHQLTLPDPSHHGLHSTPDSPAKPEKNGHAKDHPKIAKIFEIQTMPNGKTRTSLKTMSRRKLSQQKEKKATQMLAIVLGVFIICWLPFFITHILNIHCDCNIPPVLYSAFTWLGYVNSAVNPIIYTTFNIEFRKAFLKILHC
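Agonist mode: compounds alone added to overnight-plated D2 PathHunter cells for 90 min at 37 C, with 57 uM final dopamine (EC100) defining full response. Beta-arrestin recruitment detected by chemiluminescent reagent, read after 1 h at ambient temperature.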
D2 PAM: positive allosteric modulators of human D2 dopamine receptor; potentiation, % (no concentration beside the values); AID 624464; P14416; actives 0.23% (n = 360,000); DiscoveRx D2 beta-arrestin cells, luminescence, 90 min; 100% = 57 uM dopamine signal; active = potentiation of 50% or more; inconclusive = 30% to 50%; inactive = 30% or less;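 further: compound concentration not given in the record; tested on top of an EC20 dose of dopamine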
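PathHunter D2 cells, attached overnight at 37 deg C, received compound in DMSO plus dopamine at EC20 (50 nM final) for 90 min at 37 deg C. Beta-arrestin recruitment was read as luminescence after 1 h with detection reagent at ambient temperature.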
* = called active by the depositor; ? = inconclusive; . = no result given; [ ] = dose if it differs, or a comment.

The opening 3 entries, ahead of the listing:
SMILES	CtBP-E1A blk	TRPML1 ag	Six1-Eya2 blk	PINK1 modulator	D2 agonist	D2 PAM
Clc1ccccc1-c1nc(N/N=C/c2cccnc2)c2ccccc2n1	-7	1.2	-8	0.6%	-1.5	0
COc1cc2c(C(=O)NCc3ccccn3)cn(CC(C)C)c(=O)c2cc1OC	-26	-0.2	4	4.3%	2.6	1
O=Cc1c(-c2ccccc2)cc2oc3ccccc3cc1-2	.	2.1	-20	7.7%	-5.2	-13

This part in full, from the first entry:
SMILES	CtBP-E1A blk	TRPML1 ag	Six1-Eya2 blk	PINK1 modulator	D2 agonist	D2 PAM
Clc1ccccc1-c1nc(N/N=C/c2cccnc2)c2ccccc2n1	-7	1.2	-8	0.6%	-1.5	0
COc1cc2c(C(=O)NCc3ccccn3)cn(CC(C)C)c(=O)c2cc1OC	-26	-0.2	4	4.3%	2.6	1
O=Cc1c(-c2ccccc2)cc2oc3ccccc3cc1-2	.	2.1	-20	7.7%	-5.2	-13
N#Cc1cn(CC(=O)NCCc2c[nH]c3ccccc23)c2ccccc12	-2	2.6	-2	0.9%	0.1	-8
COc1ccc(NC(=O)CSc2nc(=O)n(CCN(C)C)c3c2CCCC3)cc1	-1	-0.3	-5	-1.1%	-1.3	-11
COc1ccc(C(=O)C2CCN(C(=S)NCCc3ccccc3)CC2)cc1	-4	0.3	-3	3.3%	-1.3	-1
CC1(C)Cc2c(sc(NC(=O)COc3ccc(Cl)cc3Cl)c2C(N)=O)C(C)(C)N1	0	-0.4	1	4.0%	-3.8	-9
COc1ccc2[nH]c3c(N4CCc5ccccc5C4)ncnc3c2c1	-22	0.5	-20	-1.5%	0.1	-9
O=C1c2cnc3ncnn3c2CC2c3ccccc3CCN12 (stereo not given)	-1	-0.9	5	1.0%	-9.5	-6
COC(=O)C1=C(C)NC(=S)NC1c1ccc(-c2cccc(Cl)c2)o1 (stereo not given)	3	-0.5	3	0.3%	-4.5	-3
O=C(CN(Cc1ccco1)Cc1ccco1)Nc1cc(S(=O)(=O)N2CCCCC2)ccc1Cl	.	0.7	-19	1.9%	5.9	7
CCN(CC)C(=S)Nc1ccc(OC(F)F)cc1	2	0.4	6	-0.1%	3.6	-4
O=C(c1ccco1)N1CCN(C/C=C/c2ccccc2)CC1	-12	-0.4	6	-0.8%	41*	?
COc1ccccc1C(=O)N1CCN(Cc2c[nH]c3ccccc23)CC1	2	-0.6	4	-1.2%	0.4	3
COc1ccc(C2=NS(=O)(=O)N(C)C(C(=O)Nc3ccc(C)cc3)=C2)cc1	-1	-0.2	-21	7.3%	1.7	-13
CCCCCCSc1cccc(-c2nc3ccc(C)cn3c2NC2CCCCC2)c1	-1	-0.2	7	?	-4.7	-8
Cc1c(C(=O)NCc2ccccc2C(F)(F)F)sc(=O)n1Cc1ccc(Cl)c(Cl)c1	1	-0.1	2	0.1%	6.5	-1
CCOC(=O)c1sc(N)c(C#N)c1CSc1nc2ccc(OCC)cc2[nH]1	-8	2.2	-18	1.0%	-2.7	10
Cc1ccc(/C=N/n2c(-c3ccc(Cl)cc3)n[nH]c2=S)s1	2	-0.8	0	1.9%	1.2	-1
CCCCc1ccc(S(=O)(=O)NC(=O)C2(C)CCN2C(=O)c2c(C)noc2C)cc1 (stereo not given)	-22	-0.5	2	1.8%	-3.4	-5
COc1ccc(C2CC(C(F)(F)F)n3nc(C(=O)O)c(Cl)c3N2)cc1OC (stereo not given)	-8	0.3	11	-2.5%	-0.5	-5
CC(OC(=O)c1ccc(Cl)c(S(=O)(=O)Nc2ccc(F)cc2)c1)C(=O)NC(N)=O (stereo not given)	4	0.0	6	0.9%	-0.3	-6
COc1cccc(CC(=O)OCc2csc(CC(=O)Nc3ccccc3C)n2)c1	.	-1.8	-2	2.1%	-1.0	12
Cc1ccc(/C=N/N=C2/NC(=O)CS2)o1	-2	1.2	4	1.0%	5.5	-11
CN(C)CCNC(=O)c1[nH]c(C(F)(F)F)nc1-c1ccccc1	0	-0.7	2	0.4%	4.8	-2

Additional compounds:
SMILES	CtBP-E1A blk	TRPML1 ag	Six1-Eya2 blk	PINK1 modulator	D2 agonist	D2 PAM
CC12CN3CC(C)(CN(C1)C3c1ccc(Cl)cc1Cl)C2O (stereo not given)	-9	0.9	4	10%	0.1	-4
O=C(CCCCCCCCN1C(=O)c2ccccc2C1=O)N1CCOCC1	2	0.1	0	1.9%	-1.7	-3
O=C(Nc1cccc(F)c1)c1ccc2c(c1)OCCO2	-3	0.0	8	2.9%	-2.3	0
Cc1ccc(/C=N/n2c(-c3cccnc3)n[nH]c2=S)o1	8	0.2	5	0.6%	2.1	-5
CC(C)(C)c1cc(S(=O)(=O)CCc2ccncc2)cc(C(C)(C)C)c1F	0	-1.1	-16	13%	-4.4	-8
O=C(OC(c1ccc(NS(=O)(=O)c2ccccc2)cc1)(C(F)(F)F)C(F)(F)F)c1ccccc1	3	1.2	-1	1.8%	-5.7	-11
O=C(NCc1cccnc1)c1cc(Sc2cccc(Cl)c2)nc2ccccc12	-2	0.0	1	-0.8%	-7.7	-17
Cc1ccccc1C(=O)NC1CCCCCCC1	6	0.5	9	4.1%	-3.0	1
CC(=O)C(C)Oc1ccc2c3c(c(=O)oc2c1C)CCCC3 (stereo not given)	1	2.7	-1	-2.9%	3.1	21
Cn1c(CN2CCCCC2)nc2cc(NS(=O)(=O)c3ccc(F)cc3)ccc21	0	1.6	20	4.3%	-6.2	-3
Cc1ccc(NC(=O)Cn2nnc(C(=O)NCc3ccc4c(c3)OCO4)c2N)cc1	-4	-0.5	1	-0.1%	-5.2	-14
COc1cc(C)nc(Oc2ccc(OCCOc3ccc(C)cc3)nn2)n1	-2	-0.1	-11	0.3%	-2.2	-1
Cc1cccc(C2(c3cccc(C)c3)CC2C(=O)Nc2ccc([N+](=O)[O-])cc2O)c1 (stereo not given)	-14	3.3	0	?	1.9	14
COc1cc(NC(=O)Cc2cccs2)ccc1-n1cnnn1	4	0.4	-7	-0.5%	-2.3	-15
CC1S/C(=N\N=C\c2cccc([N+](=O)[O-])c2)N(C(C)(C)C)C1=O (stereo not given)	-19	3.4	-29	2.8%	6.9	-2
CC(C)CC(=O)N1CCN(Cc2ccc3c(c2)OCO3)CC1	35	-0.3	10	-2.4%[38.3 µM]	?	10
CCOC(=O)c1c(-c2ccccc2)csc1NC(=O)c1cc(S(=O)(=O)N2CCOCC2)ccc1C	-25	0.8	-3	-0.6%	-1.4	-14
Cn1c2c(c(=O)n(C)c1=O)C1c3ccccc3OCC1C(C)(C)O2 (stereo not given)	7	-0.3	2	0.6%	0.4	0
COc1ccc(/C(C)=N/NC(=O)c2nnn(-c3nonc3N)c2-c2cccs2)cc1OC	4	-0.7	4	?	1.6	4
COc1ccc(CC(=O)Nc2cccc(SC)c2)cc1OC	0	1.2	4	-0.1%	5.8	6
C=CCc1ccc(OCCn2cncn2)c(OC)c1	.	-0.4	-6	1.6%	4.4	1
NC(=O)CC(NC(=O)Cc1cccc2ccccc12)c1ccc(NC2CCCC2)c([N+](=O)[O-])c1 (stereo not given)	4	0.0	-4	0.5%	-2.6	1
COC(=O)Cc1nnc(NC(=O)c2ccccc2)s1	7	-0.4	10	1.5%	-1.5	0
CCOC(=O)c1cc(CC)sc1NC(=O)c1cc([N+](=O)[O-])ccc1N1CCOCC1	0	-0.4	-1	6.1%	-0.7	7
Cc1nc2ccccc2c(=O)[nH]1	4	-0.4	1	3.1%	-3.4	-3

Seven structures already listed, ordered by length of the SMILES, smallest number first:
SMILES	CtBP-E1A blk	TRPML1 ag	Six1-Eya2 blk	PINK1 modulator	D2 agonist	D2 PAM
Cc1nc2ccccc2c(=O)[nH]1	4	-0.4	1	3.1%	-3.4	-3
Cc1ccccc1C(=O)NC1CCCCCCC1	6	0.5	9	4.1%	-3.0	1
C=CCc1ccc(OCCn2cncn2)c(OC)c1	.	-0.4	-6	1.6%	4.4	1
COc1cc(NC(=O)Cc2cccs2)ccc1-n1cnnn1	4	0.4	-7	-0.5%	-2.3	-15
Cc1ccc(/C=N/n2c(-c3cccnc3)n[nH]c2=S)o1	8	0.2	5	0.6%	2.1	-5
CC12CN3CC(C)(CN(C1)C3c1ccc(Cl)cc1Cl)C2O (stereo not given)	-9	0.9	4	10%	0.1	-4
NC(=O)CC(NC(=O)Cc1cccc2ccccc12)c1ccc(NC2CCCC2)c([N+](=O)[O-])c1 (stereo not given)	4	0.0	-4	0.5%	-2.6	1

(further entries)
SMILES	CtBP-E1A blk	TRPML1 ag	Six1-Eya2 blk	PINK1 modulator	D2 agonist	D2 PAM
COCCN(C(=O)CCC(=O)Nc1cc(C)on1)C(C(=O)NC(C)(C)C)c1ccc(OC)cc1 (stereo not given)	-6	-1.1	-1	-0.5%	-9.8	-2
CCOc1ccc(CCNC(=O)COC(=O)/C=C/c2ccc(OCC#N)c(OC)c2)cc1OCC	-3	-0.1	2	1.1%	-6.0	-8
CN1CCN(c2oc(-c3ccccc3)nc2S(=O)(=O)c2ccccc2)CC1	3	-0.2	9	2.4%	1.7	-3
C=CCN1C(=O)[C@@H]2Cc3c([nH]c4ccccc34)C(c3cc(OC)c(OC)c(OC)c3)N2C1=S (stereo not given in full)	.	3.1	-1	5.5%	-3.7	-5
O=C(CC12CC3CC(CC(C3)C1)C2)Nc1nncs1	-19	0.7	-9	1.0%	2.5	-14
CCOC(=O)C1=CCN(S(=O)(=O)c2ccccc2Br)C1c1cccc(C)c1 (stereo not given)	9	8.9	-3	0.8%	-3.4	-1
COc1cccc(N2CCN(C3CC(=O)N(c4ccc(Cl)c(Cl)c4)C3=O)CC2)c1 (stereo not given)	-20	-1.2	?	1.2%	-1.2	6
COc1cccc(OCC(O)CNC(=O)c2oc3c(C)c(C)ccc3c2C)c1 (stereo not given)	-5	2.1	-7	0.2%	1.2	-3
CC(=O)Nc1ccc(-c2cn3cc(C)ccc3n2)cc1	18	-0.3	7	2.5%	0.1	4
CC(/C=C/c1ccccc1)=N\NC(=O)c1ccncc1	8	0.7	-1	.	2.7	5
COc1cccc(C2/C(=C(\O)c3ccc4c(c3)OCCO4)C(=O)C(=O)N2CCN(C)C)c1 (stereo not given)	4	-0.7	-2	-1.3%	-0.7	-4
Cc1ccc(S(=O)(=O)N(C)C)cc1NC(=O)CN1c2cccc3cccc(c23)S1(=O)=O	0	0.0	-4	1.8%	?	-4
CN1C(=O)C(O)(CC(=O)c2ccccc2O)c2cc(Br)ccc21 (stereo not given)	5	0.1	-5	7.9%	-19	-39
O=C(Nc1ccc(S(=O)(=O)Nc2ccccn2)cc1)c1ccc(Cl)cc1Cl	1	0.2	-10	0.5%	-0.1	0
COc1cccc(C(=O)C2CCCN(C(=O)CCc3scnc3C)C2)c1 (stereo not given)	1	0.4	11	0.0%	-1.1	2
